HIV Env fusion: blocks HIV Env-driven cell-cell fusion; HeLa-JRFL Env/CEM21 cell fusion, luciferase; inhibition, % at 12.3 µM; 360,000 tested, 1.1% active; AID 651610;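 active = mean replicate inhibition score of at least 50 and every replicate individually at or above 50; inconclusive = only one of the two criteria met; inactive = mean below 50 and not all replicates reaching 50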;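 also: 0% = plate neutral controls and 100% = maraviroc near 300 nM; one replicate is shown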
PABP polyA inh: blocks human PABP binding to poly(A) RNA; fluorescence polarization; inhibition, % at 35 µM; AID 2014; 290,000 tested, 1% active; P11940;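 active = 50% or more with normal probe brightness, or confirmed in later tests; inconclusive = above 50% with abnormal brightness, or retests that disagree; inactive = below 50% or failed in later tests; about a fifth of its hits are not listed in these tables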;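 also: calls also rest on retests at 20 µM and on dose response follow-up; controls were probe without protein and protein plus probe with vehicle; some compounds called inactive have numbers as strong as hits; many hits fall short of the cut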
CSC inhib: cancer stem cell inhibition; inhibition, % at 7.5 µM; 300,000 tested, 1.1% active; cancer stem cell-like cells viability, luminescence; AID 2717;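 active = mean at 75% or more and at least half the replicates too; inconclusive = mean and replicates disagree; tested in HMLE shEcad cells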;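 also: 0% = median of negative and 100% = median of positive control wells; the first replicate is given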
Rce1 inh: yeast Ras-converting enzyme inhibition | AID 2563 | 290,000 tested, 0.27% active | calls only | yeast membranes, quenched prenylated peptide cleavage fluorescence | Q03530;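 active = fall in fluorescence gain of 50% or more versus controls, with final raw signal at or below 3038400; inconclusive = same 50% fall but final raw signal above 3038400; inactive = fall in fluorescence gain under 50%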;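 also: plate controls were neutral control wells for no effect and wells lacking membranes for full effect; tested at 10 µM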
Target sequence (Q03530 whole entry, looked up): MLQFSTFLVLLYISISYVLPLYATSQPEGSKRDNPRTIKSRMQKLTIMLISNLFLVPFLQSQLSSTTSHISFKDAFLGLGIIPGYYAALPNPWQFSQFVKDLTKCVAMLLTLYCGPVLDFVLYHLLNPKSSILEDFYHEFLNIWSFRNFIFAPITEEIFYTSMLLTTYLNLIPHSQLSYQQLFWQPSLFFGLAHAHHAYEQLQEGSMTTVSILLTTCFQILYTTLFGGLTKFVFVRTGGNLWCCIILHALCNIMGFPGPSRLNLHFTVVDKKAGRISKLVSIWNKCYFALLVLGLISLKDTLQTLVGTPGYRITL
eIF4H inh: inhibitors of RNA binding by human eIF4H; Q15056; eIF4H fluorescence polarization binding assay; inhibition, % at 35 µM; 290,000 tested, 0.94% active;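 active = 50% or more with normal probe brightness, or confirmed in later tests; inconclusive = above 50% with abnormal brightness, or retests that disagree; inactive = below 50% or failed in later tests; about a fifth of its hits are not listed in these tables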;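 also: calls also rest on retests at 20 µM and on dose response follow-up; 0% = protein and probe with vehicle and 100% = probe without protein; strong numbers were not always called active; many hits fall short of the cut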
MT1-MMP act inh: blocks activation of human MT1-MMP | HT1080 RFP-PRO-GFP cells, GFP/RFP ratio fluorescence, overnight; percent of plate control window, DMSO zero | GFP/RFP ratio change, % at 20 µM | 360,000 tested, 0.061% active | AID 651647;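 active = GFP/RFP ratio change of at least 30% with cell ATP level not reduced by more than half and red fluorescence within 50% of control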; also: strong numbers were not always called active
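Material: RFP-PRO-GFP reporter HT1080 cells. Dosing: single-point 20 µM compound, 1% DMSO. Controls: DMSO and RFP-L50D-GFP cell wells. Timing: cells overnight before dosing, compound overnight, 37 °C, 5% CO2. Measure: GFP/RFP fluorescence ratio.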
UUG fidelity: modulators of start codon recognition fidelity in yeast; S. cerevisiae UUG-firefly luciferase reporter, luminescence/redox ratio; activity score, % at 18.7 µM; 350,000 tested, 0.13% active; AID 602363;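 active = replicate mean at a twofold rise or more, about +100% in these data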;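 also: firefly luciferase made from a UUG start codon reports start codon fidelity; reporter light over untreated wells divided by growth signal over untreated wells; some hits fall short of that in this replicate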
PABP polyA inh retest: further read-out of PABP polyA inh, marked with its call; inhibition, %; compound at 20 µM; confirmation repeats;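 mean of two retest wells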
MT1-MMP act inh RFP: also measured in MT1-MMP act inh; calls as there; RFP signal change, %; measured here: RFP expression control read;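 0 = vehicle wells; hits needed this value within 50% of zero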
* marks the source's active call; other numbers are inactive results; i = inactive; ? = inconclusive; · = no result given; & = joins results of further samples; [ ] = dose if it differs, or a comment.

SMILES | HIV Env fusion | PABP polyA inh | CSC inhib | Rce1 inh | eIF4H inh | MT1-MMP act inh | MT1-MMP act inh RFP | UUG fidelity | others
NS(=O)(=O)c1ccc(CCNC(=O)CSc2nc3ccsc3c(=O)n2CCCCC(=O)O)cc1 | -21.6 | -14.2 | -17.5 | i | 5.3 | -0.4 | 2.6 | ·
C[C@H](CO)N1C[C@H](C)[C@@H](CN(C)C(=O)Nc2ccc(C(F)(F)F)cc2)Oc2ccc(NC(=O)C3CCCCC3)cc2C1=O | -2.9[16.7 µM] | · | 18.5 | · | · | 1.1 | -2.5 | -11.8&-12.2
COc1ccc(CCNC(=O)/C(C#N)=C/c2cccc(OCc3ccccc3)c2)cc1OC | -6.4 | 5.4 | 8.8 | i | -1.5 | -6.7 | -10.4 | ·
COc1cccc(-c2nnc(NC(=O)CCS(=O)(=O)c3ccc(F)cc3)o2)c1 | 15.8 | · | · | · | · | -0.4 | -1.8 | -44.8
COc1ccc(NC(=S)N(Cc2ccccn2)Cc2ccccc2Cl)cc1 | 2.9 | 4.2 | 4.7 | i | -0.9 | -1.9 | 0.8 | -18.1
Cc1ccc(/C=C2\SC(=S)N(CCC(=O)NNC(=O)c3ccccc3O)C2=O)cc1 | 0.1 | 2.0 | -5.3 | i | -16.7 | 8.2 | 1.7 | -11.0
CN1CCN(NC(=O)c2ccc(Cl)c([N+](=O)[O-])c2)CC1 | · | -1.6 | -22.2 | i | 3.4 | -2.0 | 0.9 | -2.9
CC[C@]12c3[nH]c4ccc(Cl)cc4c3CCN1C(=O)[C@@H](CC(=O)NCc1ccco1)C[C@@H]2C(=O)N1CCN(C(=O)C2CC2)CC1 | -10.7 | · | · | · | · | 2.9 | 0.6 | -8.7
Fc1ccc(-c2cc(C(F)(F)F)n3ncnc3n2)cc1 | -6.5 | -10.3 | -5.9 | i | -7.2 | 2.6 | 4.4 | ·
Cc1ccc(O)c(-n2nc3ccccc3n2)c1 | -31.3 | 7.2 | 3.8 | i | 6.8 | 4.5 | 2.7 | ·
COCCCNC(=O)c1ccc(CS(=O)(=O)Cc2cccc(C)c2)o1 | · | -2.1 | -3.2 | i | 2.2 | 0.2 | -1.2 | -3.3
CCOC(=O)N1CCN(C(=O)COc2ccc3c(c2)C(=O)CC(C)(C)O3)CC1 | 6.1 | 78.9* | -9.3 | i | ? | -1.1 | -1.0 | · | PABP polyA inh retest=64.4*
O=C(COc1cccc2c1CCN(Cc1ccc(Br)cc1)C2=O)N1CCOCC1 | 4.2 | 0.6 | · | i | 2.9 | -6.9 | -23.7 | ·
N#CC1=C(N)NC(SCc2ccc(Cl)cc2)=C(C#N)C12CCCCC2 | · | -8.7 | -23.0 | i | 1.7 | 1.9 | -4.5 | -5.3
O=C(/C=C/c1ccc(OCc2c(F)cccc2Cl)cc1)N1CCOCC1 | 30.5 | 5.7 | 20.6 | i | -8.1 | -0.3 | -5.4 | ·
COc1ncnc(OC)c1NC(=O)c1ccc(F)cc1 | · | -4.5 | 2.9 | i | 14.3 | 0.0 | 3.0 | -1.4
CCOC(=O)c1ccc2c(c1)N(CC#N)C(=O)C(C)(C)O2 | -2.0 | -6.8 | -6.1 | i | -0.6 | -3.5 | 3.7 | -1.8
Cn1c(=O)c2cc(S(=O)(=O)N3CCN(c4cccc(C(F)(F)F)c4)CC3)ccc2n(C)c1=O | -42.2 | -7.5 | 15.8 | · | 1.6 | 4.6 | 3.2 | -8.9
COc1ccccc1NC(=O)N(c1c(N)n(Cc2ccccc2)c(=O)[nH]c1=O)C1CCCC1 | -84.3 | 0.9 | -13.3 | i | -3.4 | -0.5 | -6.3 | -5.7
CCOC(=O)c1ccccc1NC(=O)c1ccccc1SC | · | 13.1 | 22.3 | i | -1.7 | 1.5 | -3.4 | -5.4
COc1ccc(NC(=S)N(CCN(C)C)C(C)c2ccncc2)cc1Cl (stereo not drawn) | 14.1 | -7.6 | -10.6 | i | -4.8 | -11.4 | 3.5 | -53.3
COc1ccccc1CN1CCCC(N2CCN(c3ccccc3OC)CC2)C1 (stereo not drawn) | -18.3 | 1.6 | -7.4 | i | -4.8 | -0.3 | 1.6 | 1.1
O=C(CSc1nnc(COc2ccc(Br)cc2)o1)N1CCOCC1 | 12.2 | -2.4 | 3.6 | i | -5.8 | 5.1 | 5.4 | -5.3
CN(CC(=O)Nc1ccc(Cl)c(C(F)(F)F)c1)C(=O)Cc1n[nH]c(=O)c2ccccc12 | 24.1 | · | -0.1 | i | · | -9.0 | -30.0 | 4.1
COc1ccc(NC(=O)N(C)C[C@H]2Oc3c(NC(=O)Nc4ccc5c(c4)OCO5)cccc3C(=O)N([C@H](C)CO)C[C@@H]2C)cc1 | 4.8[16.7 µM] | · | · | · | · | 1.7 | 1.0 | 8.5&-9.3
Cc1cc(C)c(C)c(S(=O)(=O)Nc2ccccc2C(=O)O)c1C | -18.1 | 33.4 | 2.9 | i | 4.8 | 3.6 | 3.1 | -11.9
CC1Nc2ncnc(N3CCOCC3)c2N(Cc2ccccc2)C1=O (stereo not drawn) | -7.5 | · | -8.7 | i | · | 0.0 | -2.5 | 4.5
O=C(NCC(c1ccco1)N1CCCCC1)c1ccc(S(=O)(=O)Nc2ccccc2Cl)cc1 (stereo not drawn) | · | · | 6.6 | · | · | 2.3 | -0.9 | -17.9
C=CCN1C(=O)C(Cc2ccc(OCC)cc2)S/C1=N\N=C\c1cccs1 (stereo not drawn) | · | 3.8 | 7.6 | i | -9.7 | -2.1 | -3.6 | ·
CC1CCCN(C(=O)COC(=O)c2n[nH]c3ccccc23)C1 (stereo not drawn) | · | -0.6 | -10.0 | i | -8.0 | 3.9 | 7.0 | -19.4
CC1CCCN(c2nc3ccsc3c(=O)s2)C1 (stereo not drawn) | -80.1 | 4.1 | -11.1 | i | 4.6 | 3.8 | 3.0 | -21.7
Cc1ccc2oc(C(=O)Nc3cc(C)on3)c(C)c2c1 | -141.4 | · | · | · | · | -6.4 | 1.2 | -1.5
OCCC1CN(Cc2cccn2-c2ccccn2)CCN1Cc1ccccc1 (stereo not drawn) | -6.5 | 15.4 | -3.7 | i | 31.3 | -2.1 | 2.7 | ·
O=C(c1ccoc1)N1CCC2(CC1)Oc1ccc(Cl)cc1C(=O)C21CC(c2ccc(Cl)cc2)=NO1 (stereo not drawn) | -67.8 | -3.3 | -5.2 | i | -5.6 | -0.8 | -1.1 | -11.7
O=C(Nc1ccc(N2CCN(c3ccccc3)CC2)c(F)c1)C1CC1 | 8.6 | -5.9 | -13.7 | i | -1.7 | 1.2 | 5.3 | -15.7
COc1ccccc1N1CCN(c2ccnc3cc(Cl)ccc23)CC1 | 7.7 | 0.1 | -13.9 | i | -8.8 | -5.9 | -17.1 | -12.2
Cc1cc(C)n(-c2ccc(C(=O)OCC(=O)N3CCN(c4ccccc4)CC3)cc2)n1 | 1.3 | · | -0.6 | · | · | -0.9 | -1.0 | -6.4
Cc1c(NC(=O)C(C)OC(=O)c2cc(Cl)nc(Cl)c2)c(=O)n(-c2ccccc2)n1C (stereo not drawn) | · | 8.9 | -22.3 | i | 2.0 | -1.3 | 3.5 | -5.8
Cc1csc(NC(=O)c2nc3nccc(C)n3n2)n1 | · | -10.7 | -0.7 | i | 7.0 | 1.4 | 2.1 | -23.6
CC1CN(S(=O)(=O)c2ccc(C(=O)NCCCn3ccnc3)cc2)CC(C)O1 (stereo not drawn) | 5.2 | -0.6 | 67.1 | i | 9.5 | 0.0 | 2.1 | ·
CCOC(=O)c1c(C)n(C)c2cc(-c3ccc(F)cc3)c(O)cc12 | -34.7 | 10.7 | 0.7 | i | -0.6 | 2.9 | 5.4 | ·
COc1cc(OC)cc(C(=O)Nc2ccc(S(=O)(=O)N(C)C)cc2)c1 | -17.9 | -5.0 | 0.8 | i | 1.8 | 1.3 | -0.1 | ·
Cc1ccc(F)c(NC(=O)c2c(-c3ccccc3)noc2C)c1 | 11.2 | -12.6 | 14.1 | i | -11.8 | 1.1 | 1.7 | -3.3
O=C(NCc1cccc(C(F)(F)F)c1)c1ccc(=O)[nH]c1 | 2.8 | 2.5 | -27.2 | i | -0.5 | -1.8 | -0.7 | -16.3
Clc1cccc(CON/C=N/c2ncnc3sccc23)c1 | · | 2.3 | 10.5 | i | 0.5 | 0.5 | -8.9 | -1.7
Cc1cc(C(F)F)n2ncc(C(=O)N3CCCCC3)c2n1 | -4.3 | 5.2 | 3.4 | i | -11.3 | 3.5 | -0.9 | -4.8
Cc1ccc2oc(=O)n(CCCOc3ccccc3C)c2c1 | -26.3 | -17.2 | -1.2 | · | -4.6 | -3.9 | -4.3 | ·
FCCCOc1ccc(CN2CCN(c3ccccc3F)CC2)cc1 | -7.9 | -2.0 | 16.1 | i | 1.1 | -7.2 | -0.9 | -1.4
COc1ccc(NC(=O)CN(C)S(=O)(=O)c2ccc3c(c2)CC(C)N3C(C)=O)c(OC)c1 (stereo not drawn) | 1.8 | 5.8 | -12.1 | i | 2.8 | 0.3 | 0.0 | -20.8
Cc1ccc(NC(=O)CCn2cnc3ccccc3c2=O)cc1 | 2.2 | -8.6 | -13.8 | i | -4.5 | -4.8 | 1.9 | 15.2
CC(C)(C)n1nnnc1C(c1cccnc1)N(Cc1ccccc1)Cc1ccco1 (stereo not drawn) | · | 10.6 | 6.7 | i | -4.4 | -0.4 | 1.2 | -1.3
CCOC(=O)c1[nH]c2ccc(OC)cc2c1NC(=O)CCN1CCSCC1 | · | 1.4 | -16.3 | i | 4.2 | 3.4 | 4.1 | ·
Cc1cccc(C)c1OCC(=O)Nc1ccccc1C(F)(F)F | -4.0 | 8.5 | 3.3 | i | 9.0 | -1.6 | -1.2 | -19.3
O=C(/C=C/c1ccc(Cl)cc1)NCc1ccncc1 | 13.3 | -9.1 | 1.9 | i | -9.6 | 5.4 | -2.9 | -17.8
O=C(Nc1ccn(Cc2c(F)c(F)c(F)c(F)c2F)n1)c1ccc(COc2ccccc2Cl)cc1 | 44.9 | 1.1 | 11.7 | i | -13.3 | -2.6 | -7.3 | -4.8
CCC(C)NC(=O)C1CCN(C(=O)c2ccccc2)CC1 (stereo not drawn) | · | -9.2 | -12.4 | · | -3.2 | -2.2 | -1.0 | -14.8
Cc1ccc(S(=O)(=O)N2CCC(C(=O)NCc3cccnc3)CC2)cc1 | · | -3.9 | -21.1 | i | -15.9 | -6.1 | 0.3 | 1.1
CC(C)NC(=O)NC(=O)COC(=O)c1ccc(NC(=O)CC#N)cc1 | -11.1 | 10.3 | -1.3 | i | -2.4 | 3.8 | 11.8 | -8.2
O=C(CCSCc1ccccc1F)N1CCN(c2ccccn2)CC1 | · | -6.1 | -6.4 | i | -3.2 | 1.6 | 0.6 | ·
Cc1cc(SCC(=O)N2CCCC2=O)nc2c(C)cccc12 | -3.2 | · | -0.1 | i | · | 5.9 | -2.5 | -14.4
CCOC(=O)c1cc(C)nc(Sc2ccc(C)cc2)c1C#N | -10.3 | 1.9 | 23.8 | i | -1.7 | -2.2 | -8.5 | -5.7

Source: PubChem BioAssay (several laboratories)

Not all compounds are listed; count on the stated rates, not on these rows.
